Compound activity: PubChem, Southern Research Specialized Biocontainment Screening Center
Mtb betalactam: beta-lactam sensitization of Mtb H37Rv, H37Rv; inhibition, % at 25 µM; 0.27% of 330,000 active; AID 434955, 2010; M. tuberculosis H37Rv growth with meropenem, percent inhibition; hits of this screen are not shown here;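 active means about 74% or more and at least 40 points above the plate without the antibiotic, then above 30% in a dose series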;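 further: growth measured after seven days incubation then overnight dye step; 0% = bacteria only wells and 100% = bacteria with antibiotic; twin plates without the antibiotic show which effects depend on it; some results filed as inactive read as strong as hits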
* = called active by the depositor. Some of the compounds tested; rates above refer to the full screens.

SMILES	Mtb betalactam
O=C(C[C@@H]1C/C=C\C[C@H](NC(=O)OCC2c3ccccc3-c3ccccc32)C(=O)OC[C@H]2CCCN2C1=O)NCCO	-5.0
O=[N+]([O-])c1ncccc1OCc1ccc(Br)cc1F	0.3
Cc1ccsc1C(=O)OCC(=O)N(C)C1CCCCC1	-2.5
O=C(CN1C(=O)NC2(CCCCC2)C1=O)Nc1cccc(S(=O)(=O)N2CCCC2)c1	0.9
Cc1ccccc1OCC(=O)NNC(=O)Cn1[nH]c(=O)c2ccccc2c1=O	0.0
Cn1c(SCC(=O)NCC2CCCO2)nnc1-c1ccc(Cl)cc1 (stereo not given)	0.7
CSc1cccc(N2CC(C(=O)N3CCN(S(=O)(=O)c4ccccc4Cl)CC3)CC2=O)c1 (stereo not given)	25.3
CN(Cc1ccccc1)C(=O)COC(=O)/C=C/c1ccc2c(c1)OCO2	7.2
C[C@H](CO)N1C[C@H](C)[C@@H](CN(C)C(=O)Nc2ccc(C(F)(F)F)cc2)Oc2c(NC(=O)Nc3ccc(C(F)(F)F)cc3)cccc2C1=O	91.2
COC(=O)C1=C(c2c(C)noc2C)C[C@@H]2CC[C@H]1N2C(=O)NCc1ccc(C(F)(F)F)cc1	1.9
N#Cc1ccc(OCC(O)CN2CCN(c3ncc(C(F)(F)F)cc3Cl)CC2)cc1 (stereo not given)	98.9
O=C(COC(=O)C1CC(=O)N(Cc2ccccc2)C1)Nc1cccc([N+](=O)[O-])c1 (stereo not given)	-5.1
CCc1ccc(NC(=O)C2CCN(S(=O)(=O)c3cccs3)CC2)cc1	-6.7
O=C(c1cc(O)c(O)c([N+](=O)[O-])c1)c1ccccc1F	7.2
CC(C)(C)OC(=O)NCc1ccc(NC(=O)c2nc[nH]c2C(=O)NCCN(CCNC(=O)c2[nH]cnc2C(=O)Nc2ccc(CNC(=O)OC(C)(C)C)cc2)CCNC(=O)c2[nH]cnc2C(=O)Nc2ccc(CNC(=O)OC(C)(C)C)cc2)cc1	13.0
CC(C)N(C)S(=O)(=O)c1ccc(NC(=O)C2=COCCO2)cc1	-7.2
CC(=O)c1ccccc1NC(=O)CSc1n[nH]c(=O)n1C1CC1	-3.7
CN(C(=O)c1ccccc1C(=O)OCC(=O)Nc1ccccc1)c1ccccc1	3.4
O=C(Cn1cc(C(F)(F)F)ccc1=O)N1CCc2ccccc2C1	-2.0
COc1cc(OC)cc(C(=O)N2CCN(C3CCCCC3)CC2)c1	-13.3
CS(=O)(=O)c1ccc(-c2nnn(CC(=O)Nc3ccc4c(c3)OCCO4)n2)cc1	-5.0
COc1cc2sc(-c3ccc(S(C)(=O)=O)cc3)c(C(=O)NCc3ccc(C)o3)c2cc1OC	1.9
C=CCn1c(O)c(N=Nc2ccccc2)c2ccccc21	-4.0
O=C(CCNC(=O)c1ccc([N+](=O)[O-])cc1)NCc1ccco1	-6.0
O=c1oc(CCCO)cc2ccc(Br)cc12	4.2
COc1cccc(CNC(=O)COC(=O)c2nn(C)c(=O)c3ccccc23)c1	-2.1
O=C(OCC(=O)N1CCC(Cc2ccccc2)CC1)c1cccnc1Cl	1.5
C[C@H](CO)N1C[C@H](C)[C@@H](CN(C)C(=O)Nc2ccc3c(c2)OCO3)Oc2ccc(NC(=O)Cn3cnnn3)cc2C1=O	-10.2
CC(=O)Nc1ccc(C(=O)COC(=O)c2c(C)noc2C)c(F)c1	-5.0
CCCCNc1c(-c2ccc(OC)c(SC(C)CC)c2)nc2ccc(Cl)cn12 (stereo not given)	10.7
COc1ccc(NC(=O)c2c(C)noc2C(C)C)cc1S(=O)(=O)N1CCCCC1	-8.2
COc1ccc(S(=O)(=O)Nc2ccc3c(c2)CC(=O)N([C@H](C)CO)C[C@H](C)[C@H](CN(C)C(=O)Nc2ccc4c(c2)OCO4)O3)cc1	-0.4
CCOC(=O)c1cccc(C2=CC(=O)C[C@H](c3ccc(Cl)cc3)C2)c1	79.1
CSCCC(NC(=O)c1ccccc1)C(=O)NCCc1ccc2c(c1)OCCO2 (stereo not given)	-3.7
CCc1ccc(C(=O)COC(=O)C2=NN(c3ccccc3)C(=O)CC2)cc1	1.3
CCOc1ccc(S(=O)(=O)N2CCC(C(=O)Nc3cc(S(C)(=O)=O)ccc3Cl)CC2)cc1	1.1
COc1ccc(CN(C)C(=O)COC(=O)c2cnc(Cl)c(Cl)c2)cc1	87.1
CCC(=O)c1ccc(OCC(=O)OCC(=O)c2c(N)n(C)c(=O)n(C)c2=O)cc1	0.7
Cc1ccc(C(=O)NCc2ccccn2)cc1S(=O)(=O)N1CCOCC1	-7.2
Cc1ccc2c(c1)-n1c(nc3ccccc3c1=O)C(Cc1ccc(O)cc1)NC2=O (stereo not given)	-8.4

Overlap with the part before: two compounds; new compounds follow.
SMILES	Mtb betalactam
Cc1ccc(C(=O)NCc2ccccn2)cc1S(=O)(=O)N1CCOCC1	-7.2
Cc1ccc2c(c1)-n1c(nc3ccccc3c1=O)C(Cc1ccc(O)cc1)NC2=O (stereo not given)	-8.4
O=C(Cn1cnc2c(OCc3ccccc3)ncnc21)NCCCN1CCCC1=O	4.6
Cc1nc(SCC(=O)N(C)C2CCS(=O)(=O)C2)c2ccccc2n1 (stereo not given)	2.9
C[C@H](CO)N1C[C@H](C)[C@@H](CN(C)C(=O)Nc2ccc(C(F)(F)F)cc2)Oc2ccc(NC(=O)c3ccncc3)cc2C1=O	4.8
O=C(C[n+]1ccc(C(=O)c2ccccc2)cc1)Nc1ccccc1OC(F)F	-1.1
COc1ccc(CN(C)C(=O)/C=C/c2ccc(S(=O)(=O)N3CCCCCC3)cc2)cc1	57.4
CCOc1ccc(NC(=O)CN2CCCC2c2cccs2)cc1S(=O)(=O)N1CCCCC1 (stereo not given)	0.2
CC(C)Oc1ccc(S(=O)(=O)N2CCOCC2)cc1NC(=O)CC1CCCC1	-10.8
O=C(Cc1c(F)cccc1Cl)OCC(=O)c1ccc[nH]1	-0.9
CC1CC(C)CN(C(=O)CSc2nnc3ccccn23)C1 (stereo not given)	-4.3
Fc1ccccc1-c1cc2ncccc2cn1	2.1
Cc1cnc(C(=O)OCC(=O)NCc2cccc(Cl)c2)cn1	0.1
ClCc1nc2ccccc2c2ccccc12	87.9
Nc1c(N(Cc2ccco2)C(=O)c2cccc(F)c2)c(=O)[nH]c(=O)n1Cc1ccccc1	-5.8
O=C(CSc1ncnc2sccc12)N1CCCCC1	-2.3
Cc1cc(C(=O)OCC(=O)N(C)c2c(N)n(Cc3ccccc3)c(=O)[nH]c2=O)c(C)n1-c1ccccc1	-7.9
COc1cc2sc(-c3ccccc3OC)c(-c3ccc(O)cc3)c2cc1OC	-3.6
C[C@@H]1CN([C@@H](C)CO)C(=O)c2cccc(NC(=O)C3CCCCC3)c2O[C@@H]1CN(C)C(=O)NC1CCCCC1	4.6
Cc1cccc(NS(=O)(=O)c2ccc3[nH]c(=O)oc3c2)c1C	-0.4
CCc1cc2c(SCC(=O)NCC3CCCO3)ncnc2s1 (stereo not given)	-10.3
CN(C(=O)CSc1nnc(C2CC2)n1-c1ccccc1)C1CCS(=O)(=O)C1 (stereo not given)	-2.5

Next part, overlapping the part above by 7 compounds.
SMILES	Mtb betalactam
O=C(CSc1ncnc2sccc12)N1CCCCC1	-2.3
Cc1cc(C(=O)OCC(=O)N(C)c2c(N)n(Cc3ccccc3)c(=O)[nH]c2=O)c(C)n1-c1ccccc1	-7.9
COc1cc2sc(-c3ccccc3OC)c(-c3ccc(O)cc3)c2cc1OC	-3.6
C[C@@H]1CN([C@@H](C)CO)C(=O)c2cccc(NC(=O)C3CCCCC3)c2O[C@@H]1CN(C)C(=O)NC1CCCCC1	4.6
Cc1cccc(NS(=O)(=O)c2ccc3[nH]c(=O)oc3c2)c1C	-0.4
CCc1cc2c(SCC(=O)NCC3CCCO3)ncnc2s1 (stereo not given)	-10.3
CN(C(=O)CSc1nnc(C2CC2)n1-c1ccccc1)C1CCS(=O)(=O)C1 (stereo not given)	-2.5
Nc1ccn(CC(=O)NCc2ccccc2)c(=O)n1	8.3
COc1ccccc1CN(C)C(=O)c1ccc(S(=O)(=O)Nc2c(C)n(C)n(-c3ccccc3)c2=O)cc1	-9.6
Cc1cc(C)c(C(=O)CN2C(=O)C(=O)N(C3CCCC3)C2=O)cc1C	-1.8
CCOC(=O)C1CCCN(C(=O)c2ccc3ncsc3c2)C1 (stereo not given)	-1.9
NC(=O)c1ccc(OCC(=O)N2CCNC2=O)cc1	-3.1
Cc1ccc(S(=O)(=O)N(C)C)cc1NC(=O)COC(=O)C1=COCCO1	-0.9
CC(C)(C)OC(=O)C[C@H]1C/C=C\C[C@H](CC(=O)N(CCO)Cc2ccccc2)C(=O)N2CCC[C@H]2COC1=O	-5.6
Cc1ccc(NC(=O)CCNC(=O)Nc2ccccc2)cc1S(=O)(=O)N(C)C	-3.2
COc1ccc(NC(=O)CN2C(=O)NC3(CCCC3)C2=O)cc1S(=O)(=O)N1CCCCC1	0.5
O=C(CCCCCl)Nc1c2c(nc3ccccc13)CCC2	-4.7
CCN(Cc1ccc(OC)c(F)c1)C(C)C(=O)Nc1ccc(S(=O)(=O)N2CCCC2)cc1 (stereo not given)	0.6
CCCNC(=O)C(CC)NC(=O)c1cccc([N+](=O)[O-])c1 (stereo not given)	-2.0
COc1ccc(C(=O)NCC(=O)N2CCN(C(=O)c3ccco3)CC2)cc1[N+](=O)[O-]	-10.0
CCc1nnc(NS(=O)(=O)c2ccc(NC(=O)C(c3ccccc3)c3ccccc3)cc2)s1	-1.6
CC1(NC(=O)CCNC(=O)c2ccc(C(C)(C)C)cc2)CCS(=O)(=O)C1 (stereo not given)	-5.1
Cc1ccc(C)c(OCC(=O)Nc2ccncc2)c1	3.5
CN1C(=O)C(=O)/C(=C(/O)c2ccccc2)C1c1ccc([N+](=O)[O-])cc1 (stereo not given)	3.6
C[C@@H]1CN([C@@H](C)CO)C(=O)c2cc(NC(=O)CCN3CCOCC3)ccc2O[C@@H]1CN(C)C(=O)Nc1ccccc1	-5.0
CC(C)c1ccc(NC(=O)N2C[C@H]3C[C@@H](C2)c2cccc(=O)n2C3)cc1	7.2
Cc1ccc(NS(=O)(=O)c2ccc(C(=O)Nc3nncs3)cc2)cc1	-7.8
COc1cc(C)c(C(C)C)cc1S(=O)(=O)NC1CC(C)(C)NC(C)(C)C1	-10.1
Cc1cc(NC(=O)COC(=O)CNS(=O)(=O)c2c(F)cc(F)cc2Br)no1	-2.6
COc1cccc(CN(C)C(=O)c2ccc(C)c(S(=O)(=O)N3CCCCC3)c2)c1	-1.8
O=C1CCC/C=C\C[C@@H](CC(=O)N(CCO)Cc2ccccc2)C(=O)N2CCC[C@H]2CO1	5.7
CC(=O)c1c(C)[nH]c(C(=O)OCC(=O)Nc2ccc3c(c2)OCCO3)c1C	-5.4
O=S(=O)(Nc1cccc(S(=O)(=O)N2CCCCCC2)c1)c1ccc(F)cc1F	0.8
CC(C)(C)[C@H]1COC(=O)CCCC/C=C\C[C@H](CC(=O)N(CCO)Cc2ccccc2)C(=O)N1	-2.4
O=C(OCC(=O)N1CCCC1)c1cc2c(cc1[N+](=O)[O-])OCCO2	-5.1
COc1ccc(N(C)S(=O)(=O)c2cccc(C(=O)OCC(=O)c3c(N)n(C)c(=O)n(C)c3=O)c2)cc1	-7.7
COc1ccc(CCNC(=O)COC(=O)c2ccccn2)cc1	3.7
O=C(c1ccc(Cl)cc1)N1CCN(S(=O)(=O)/C=C/c2ccccc2)CC1	-9.8
CC1(NC(=O)CC(c2ccccc2)(c2ccccc2)c2ccccc2)CCN(Cc2ccc(-c3ccccc3)cc2)C1=O (stereo not given)	4.9
N#Cc1cccc(S(=O)(=O)NCC(=O)OCC(=O)NCc2ccccc2)c1	3.1
COc1ccc(/C=C/C(=O)OCC(=O)NC2CCCC2)c(OC)c1	-1.6
CC[C@H]1C2C[C@H]3[C@@H]4N(C)c5ccccc5C45C[C@H](C2[C@H]5O)N3[C@@H]1O (stereo not given in full)	-3.6
Cc1cccc(NC(=O)C(C)Sc2nnc(-c3cccnc3)o2)c1 (stereo not given)	-1.9
COC(=O)C1=C(c2ccc(F)cc2OCc2ccccc2)C[C@@H]2CC[C@H]1N2C(=O)NCCOc1ccccc1Cl	0.2
CCN(C(=O)COC(=O)CNC(=O)c1ccc(Cl)cc1Cl)c1c(N)n(Cc2ccccc2)c(=O)[nH]c1=O	1.0
O=C(CCNC(=O)c1ccco1)Nc1nc(-c2ccccc2)cs1	4.7
O=C(c1ccc(-c2ccccc2Cl)o1)N1CCCC(C(F)(F)F)C1 (stereo not given)	3.0
O=C(CCN=C1NS(=O)(=O)c2ccccc21)OCc1nnc(-c2ccc([N+](=O)[O-])cc2)o1	-4.7
COc1ccc([C@H]2CC(=O)C=C(c3ccc(F)cc3OCc3ccccc3)C2)cc1	1.0
CC1CCN(C(=O)c2ccc(S(=O)(=O)N3CCCCCC3)cc2)CC1	2.1
COc1ccc(CC(=O)Nc2nc(C)cs2)cc1S(=O)(=O)N1CCOCC1	3.0
CCc1ccc2c(CC(=O)Nc3cccc(S(=O)(=O)N4CCOCC4)c3)coc2c1	-4.3
CCN(C[C@H]1N[C@@](CC)(C(=O)OC)[C@H]2C(=O)N(C)C(=O)[C@@H]12)C(=O)NC(C)C	2.1
CC(=O)Nc1ccc(NC(=O)CSc2nnc(C3CC3)n2-c2ccccc2)cc1	3.7
COc1ccc(S(=O)(=O)N2CCc3ccccc32)cc1C(=O)Nc1ccc(C(N)=O)cc1	7.2
COC(=O)N[C@@H]1C[C@H]2[C@@H]3CC[C@H]4C[C@@H](OC)CC[C@]4(C)[C@H]3CC[C@]12C	-3.1
CSc1ccc(CSCC(=O)N2CCN(S(=O)(=O)c3ccc(C)cc3C)CC2)cc1	26.6
CCOc1ncccc1C(=O)Nc1cc2c(cc1Br)OCCO2	2.8
CC(=O)Nc1ccccc1OCC(=O)NC1CCCCC1C (stereo not given)	-11.9
CN(CC(=O)Nc1ccccc1Br)C(=O)c1ccccc1Cc1ccccc1	0.7
Cc1ccc(NC(=O)COc2cccc3c2OC(C)(C)C3)c(O)c1	-4.9
CC1CCC(NC(=O)COC(=O)CNC(=O)c2ccc3ccccc3c2)CC1 (stereo not given)	-2.9
